Screening data (PubChem)
BasE inh: blocks the Acinetobacter baumannii siderophore enzyme BasE; AID 485350; purified BasE, fluorescence polarization binding displacement; actives 0.1% (n = 84,000); inhibition, % (concentration not given with the values);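 active = both replicates above 25% with normal brightness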;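 also: 0% = negative plate control signal and 100% = positive plate control signal; stock transfer was 100 nL into about 30 µL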
KSHV LANA nucl: inhibitors of KSHV LANA binding to nucleosomes; FITC-LANA1-23 / chicken nucleosome fluorescence polarization; hits give low values; z-score (no concentration beside the values); actives 0.3% (n = 51,000);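 active = both repeat wells score below -2 in polarization z-score versus plate sample wells, excluding overly bright wells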;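 also: 100 nL library stock added to about 30 µL; numbers are from one replicate; some results filed as inactive read as strong as hits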
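test system = FITC-LANA peptide and chicken nucleosomes | amount = 240 nM purified chicken nucleosomes (480 nM peptide binding sites), final | reagent = 50 nM FITC-LANA1-23 probe | medium = TEN-BT buffer, pH 7.5 | doses = single compound addition by pin transfer, 100 nL per well | timing = 10–45 min, room temperature | detection = fluorescence polarization | repeats = duplicate plates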
Starred values were filed as active, the others as inactive; . = not tested or not shown. An excerpt; count on the stated rates, not on these rows.

SMILES	BasE inh	KSHV LANA nucl
COc1ccc(N(CC(O)CN2CCCC2)S(=O)(=O)c2ccccc2)cc1 (stereo unspecified)	-2.0	0.23
COc1ccc(N2C(=N)C(C)(C)NC2=O)cc1	2.8	-0.058
CC1CN(Cn2nc(-c3cccc(S(=O)(=O)N(C)C)c3)n(-c3ccc(F)cc3)c2=S)CC(C)O1 (stereo unspecified)	1.1	.
NCc1nnc2ccccn12	2.4	.
O=C(NCc1cccs1)C1CCN(c2ccc(S(=O)(=O)N3CCOCC3)cc2Cl)CC1	-0.6	-0.56
N#Cc1c2ncnc(-c3ccccc3)c2n2ccccc12	-7.4	1.6
O=C(c1ccc(-n2cccn2)cc1)N1CCCCC1c1nc2ccccc2s1 (stereo unspecified)	-3.3	.
Clc1ccc2nnc(Cc3ccccc3)n2n1	-0.9	-0.0075
NC(=O)C(c1ccccc1)c1ccc(C(=O)c2ccccc2)cc1 (stereo unspecified)	.	2.6
NC(=O)COC(=O)c1ccc(-c2ccc(C(=O)OCC(N)=O)s2)s1	-5.3	.
O=C(c1cccc(S(=O)(=O)N2CCc3ccccc3C2)c1)N1CCN(c2ccc(O)cc2)CC1	-2.1	.
N#CC(C(=O)NCCc1ccccc1)c1nc2ccccc2nc1N1CCCCCC1 (stereo unspecified)	13	.
C=CCNc1nc(N)c(C(=C(C#N)C#N)c2ccccc2)s1	0.6	-0.12
CC(C)c1ccc2nc(-c3ccc(N)cc3)[nH]c2c1	-0.8	0.2
O=c1c2ccccc2c(-c2nnc(SCc3ccc(F)cc3)o2)nn1Cc1ccccc1	-1.0	.
O=S(=O)(c1ccccc1)N1CCCC1c1cccs1 (stereo unspecified)	-0.3	.
Cn1c(-c2ccc(C(C)(C)C)cc2)n[nH]c1=S	-2.2	-0.072
CCC(=O)Oc1ccc(C(=O)Nc2nccs2)cc1	2.1	0.52
O=C(COc1ccc(-c2nnco2)cc1)NC1CCS(=O)(=O)C1 (stereo unspecified)	-1.7	.
O=C(CCc1c[nH]c2ccccc12)NCC(F)(F)F	0.2	.
CN(CC(=O)Nc1ccc(N2CCOCC2)cc1)c1ncnc2sccc12	0.2	.
N#CC1=C(N)SC(N)=C(C#N)C1c1cccs1	-53	10
CC(C)C1NC(=S)N(c2ccccc2)N1 (stereo unspecified)	2.4	0.051
O=C(CN1CCN(c2ccc(O)cc2)CC1)Nc1cc(C(F)(F)F)ccc1N1CCOCC1	2.7	.
C(=N\N1CCOCC1)/c1cccc(/C=N/N2CCOCC2)c1	0.8	.
COc1ccc(/C=N/c2nc3ccccc3n2C)cc1OC	3.5	.
CCc1ccc(NC(=O)c2ccnc(C(C)(C)C)c2)cc1	2.4	-0.59
Clc1cccc(N2CCN(c3ncnc4[nH]ncc34)CC2)c1	2.0	.
Cc1c(Cl)cccc1NC(=S)N(C)CCC#N	-1.6	.
Cn1c(=O)c2c(SCC(N)=O)nc(CC(C)(C)C)nc2n(C)c1=O	0.4	-1.4
Nc1cc(=O)[nH]c(=S)n1-c1ccccc1	1.2	-1.2
COc1ccc(-c2nnc(SCC(=O)NCCC3=CCCCC3)o2)cc1	-0.7	.
Cn1c(=O)c2cc(C(=O)NCc3ccco3)sc2c2ccc(Cl)cc21	-1.7	-0.63
Cc1ccc(S(=O)(=O)Nc2ccc(C(=O)Nc3nccs3)cc2)cc1	-2.0	0.41
CCN(CC)C(=O)/C(C#N)=C/c1cn(-c2ccccc2)nc1-c1ccccc1	-0.2	.
CC(C)c1nc2sc3c(c2c(=O)n1N)CC(C)(C)OC3	1.1	0.5
Cc1cc(/C=N/n2cnnc2)c(C)n1-c1cccc(C(F)(F)F)c1	1.5	.
CC1(C)S[C@@H]2[C@H](NC(=O)[C@H](N)c3ccc(O)cc3)C(=O)N2[C@H]1C(=O)O	2.5	-0.18
NC(c1ccc2c(c1)CCCC2)c1cccs1 (stereo unspecified)	-13	.
O=C(O)CSc1nc2scc(-c3ccccc3)c2c(=O)[nH]1	3.3	-0.58
Cc1cc(Cl)ccc1OCCCC(=O)NCc1ccccn1	0.0	-0.25
O=C(NCCSCc1ccco1)C1CCC1	0.7	1.2
O=C(CSc1ccccc1)N1CCN(c2ccc(F)cc2)CC1	-0.2	.
Cc1ccc2nc3c4ccccc4cnc3n2c1	0.6	-0.68
CC(C)OC(=O)c1ccc2c(c1)no[n+]2[O-]	1.7	-1
O=C1OC(c2ccc(-c3ccccc3)cc2)=N/C1=C\c1ccco1	2.4	.
CC(C)NC(=O)N1CCCN(c2nc3ccc(Cl)cc3s2)CC1	.	-0.021
COC(=O)c1cc(NC(=O)c2ccc(N3CC4CC(C3)c3cccc(=O)n3C4)c(N)c2)cc(C(=O)OC)c1 (stereo unspecified)	-0.6	1
CCc1ccc2[nH]c(=O)c(CN(CCO)C(=S)NCc3ccco3)cc2c1	2.6	-1.4
CCC(=O)Nc1ccc(C(=O)COc2cccc(-n3cnnn3)c2)cc1	-1.0	.
O=C1c2ccccc2-c2nc3ccccc3nc21	4.5	0.09
C=CCSc1nnc2n(-c3ccc(OC)cc3)c(=O)c3c4c(sc3n12)COC(C(C)C)C4 (stereo unspecified)	4.7	-0.61
CCc1ccc(Nc2nnc(SCC(=O)O)s2)cc1	0.5	.
S=C(CN1CCCC1=S)N1CCOCC1	-3.6	0.38
CCOC(=O)c1cnc2sc3c(n2c1=O)CCCC3	-2.1	.
CC(=O)N(C)c1ccc(N=Cc2cccs2)cc1	1.0	0.015
CCCn1c2c(c(=O)n(C)c1=O)C(c1ccc(Br)cc1)C1=C(COC1=O)N2 (stereo unspecified)	-3.1	-0.38
CCN(CC)S(=O)(=O)c1ccc(NC(=O)Cc2cccs2)cc1	-3.8	0.39
Cc1cc(NC(=O)CSCc2nc3c(nnn3Cc3c(F)cccc3Cl)c(=O)[nH]2)no1	0.8	1.3
N#CC1(NC(=O)CSc2nnc(-c3ccc4c(c3)OCO4)o2)CCCCC1	9.7	.

Molecules above with a CF3 group:
SMILES	BasE inh	KSHV LANA nucl
O=C(CCc1c[nH]c2ccccc12)NCC(F)(F)F	0.2	.
O=C(CN1CCN(c2ccc(O)cc2)CC1)Nc1cc(C(F)(F)F)ccc1N1CCOCC1	2.7	.
Cc1cc(/C=N/n2cnnc2)c(C)n1-c1cccc(C(F)(F)F)c1	1.5	.

Reformatted field by field: entries from further up
> O=C1OC(c2ccc(-c3ccccc3)cc2)=N/C1=C\c1ccco1
- BasE inh: 2.4
- KSHV LANA nucl: .
> CC(C)NC(=O)N1CCCN(c2nc3ccc(Cl)cc3s2)CC1
- BasE inh: .
- KSHV LANA nucl: -0.021
> COC(=O)c1cc(NC(=O)c2ccc(N3CC4CC(C3)c3cccc(=O)n3C4)c(N)c2)cc(C(=O)OC)c1 (stereo unspecified)
- BasE inh: -0.6
- KSHV LANA nucl: 1
> CCc1ccc2[nH]c(=O)c(CN(CCO)C(=S)NCc3ccco3)cc2c1
- BasE inh: 2.6
- KSHV LANA nucl: -1.4

Back to the main list with the two entries that preceded the break.
SMILES	BasE inh	KSHV LANA nucl
Cc1cc(NC(=O)CSCc2nc3c(nnn3Cc3c(F)cccc3Cl)c(=O)[nH]2)no1	0.8	1.3
N#CC1(NC(=O)CSc2nnc(-c3ccc4c(c3)OCO4)o2)CCCCC1	9.7	.
COc1ccc(CNCCNC(=O)c2cccs2)c(OC)c1OC	0.3	-1.7
O=C1CCSC(=O)N1CN1CCN(S(=O)(=O)c2ccc(Cl)cc2)CC1	-1.8	.
Cc1noc(C)c1S(N)(=O)=O	1.0	.
CSc1n[nH]c(=O)n1C1CCCCC1	-1.9	.
CC1CCCCC1N=C1NN=C(c2ccccc2)CS1 (stereo unspecified)	3.0	.
COc1cccc(/C=C2\CC(C)C/C(=C\c3ccccc3OC)C2=O)c1 (stereo unspecified)	0.1	.
Brc1ccc(CN2CCN(Cc3ccco3)CC2)cc1	-0.1	-0.92
O=C1NC(=[N+]2CCCCC2)S/C1=C\c1ccc(-c2ccc(Br)cc2)o1	0.1	.
COc1ccc2[nH]cc(C(=O)NCCc3ccccc3)c(=O)c2c1	3.4	0.54
CC(C)CNC(=O)C1CC(=O)N(c2ccc(OCC(=O)Nc3ccc(F)cc3)cc2)C1 (stereo unspecified)	1.5	.
O=C(c1ccccc1C(=O)N1CCOCC1)N1CCOCC1	4.7	0.11
O=C(O)c1c(CNCc2ccco2)c2ccccc2n1Cc1ccccc1	-3.2	1.3
c1cncc(C2=Nc3ccccc3C(c3cccnc3)=NN2)c1	-0.4	-0.35
Cc1cc(=O)c2ccc(Cl)cc2[nH]1	1.8	0.06
O=C(CSc1ncn[nH]1)c1ccco1	0.4	.
O=C1CCCN1C(c1ccc(Br)cc1)N1CCCC1=O	3.5	.
CN1CCN(c2ncnc3oc(-c4ccccc4)c(-c4ccccc4)c23)CC1	-0.9	0.87
COc1ccc(/C=N/NC(=O)CN2CCSCC2)c(OC)c1	4.0	0.65
CC(=O)Nc1ccc(Nc2cc(C)nc3ccccc23)cc1	-4.0	-1.4
CCn1c2ccccc2c2nnc(SCC(=O)Nc3ccc4c(c3)OCO4)nc21	1.4	.
CSC(=Nc1c(C)cccc1C)N(C)C	0.5	.
O=C(Nc1ccccc1C(F)(F)F)NN1CCOCC1	2.2	-0.49
CS(=O)(=O)c1ccccc1F	-1.8	.
COC(Cn1c(SCC(=O)Nc2cc(Cl)cc(Cl)c2)nnc1-c1ccccc1)OC	1.7	.
C=CCN1C(=O)C(Cc2ccc(F)cc2)S/C1=N\N=C/c1ccco1 (stereo unspecified)	1.1	-0.059
CCOC(=O)c1c(Cn2nnc3ccccc32)nc2ccccc2c1C	9.6	.
O=C1CSC(c2ccccc2F)N1 (stereo unspecified)	0.6	-0.099
CS(=O)(=O)N1CCN(C(=S)NC2CCCCC2)CC1	5.7	0.47
CC1CCCCN1CC(=O)NCc1ccc(Cl)cc1 (stereo unspecified)	1.1	.
CN(C)c1nc(-c2ccc(OC(F)F)cc2OC(F)F)cs1	-3.5	.
Cc1onc(-c2ccccc2)c1C(=O)NNc1ccc(Cl)cc1	1.1	-0.13
Cc1ccc2nc(Cc3nc4ccc(C)cc4[nH]3)[nH]c2c1	-0.5	0.0015
N#Cc1c(N)sc2c1CCCC2	-0.3	0.17
CN1C=C(C(F)(F)F)C=CC1=C1C(=O)c2ccccc2C1=O	1.3	.
C/C(=N\NC(=O)c1cccnc1)c1ccc(-n2ccnc2)cc1	-0.2	.
COCCN1COc2c(cc(Cl)c3cccnc23)C1	-0.7	.
O=C(CSc1cc(Cl)ccc1Cl)NC1CC1	0.8	.
CC/C(O)=C(\C#N)c1nnc2n1CCCCC2	-0.8	.
C/C=N/Nc1nc(C)cc(C)n1	0.9	.
Clc1ccc(/C=N/N2CCOCC2)cc1	0.8	.
N#Cc1cccnc1Oc1ccccc1	-2.4	.
COc1ccccc1S(=O)(=O)N(C)Cc1ccccc1	4.3	.
O=C(O)[C@@H](c1ccccc1)N1C(=O)c2ccccc2C1=O	2.3	-0.028
CN(C)c1ccc(P(=O)(C2CCCC2=O)C2CCCC2=O)cc1 (stereo unspecified)	19	.
COc1ccc(CC(=O)NC2CCN(CC(=O)c3ccc(F)cc3)CC2)cc1OC	-0.8	-0.99
c1csc(-c2cc(N3CCCCC3)c3ccccc3n2)c1	-0.9	.
O=C(CSCCCc1nc(-c2ccccc2)no1)Nc1ccc(F)c(F)c1	0.0	.
CCOC(=O)c1nnn(-c2cccc(C)c2C)c1C(=O)OCC	2.7	-0.38
CCOC(=O)N1CCC(NC(=O)c2cc(S(=O)(=O)N3CCC4(CC3)OCCO4)ccc2F)CC1	-0.3	1.1
O=C(CSc1nc(=O)n(CCCN2CCOCC2)c2c1CCC2)Nc1nccs1	-0.3	-0.89
Cc1sc2ncnc(SC(F)F)c2c1C	-0.1	.
CN1CCN(C(=O)/C=C/c2c(Cl)nc3ccccn23)CC1	0.1	.
COc1ccc(-c2noc(CC(=O)N3CCN(c4ccccn4)CC3)n2)cc1	-1.2	0.17
COc1ccc(-c2ncnn2-c2cccc(Cl)c2)cc1OC	0.9	0.37
CNC(=O)/C(C#N)=C/N(C)C	0.1	-0.46
COc1cc(SC)ccc1C(=O)N(C)C1CCN(C)CC1	-0.3	.
COc1cccc(NC(=O)Nc2c(C)nc3nc[nH]n3c2=O)c1	0.6	1.5
CNC1C(O)C2O[C@H](OC3C(N)C[C@@H](N)C(O)[C@H]3O)C(N)C[C@H]2O[C@@H]1O[C@H]1OC(CO)[C@@H](N)[C@H](O)C1O (stereo partly specified)	0.1	-0.1
O=C(NC(=O)c1ccccc1Cl)OCc1cccc(Oc2ccccc2)c1	2.9	.
O=C(N[C@H](CO)[C@H](O)c1ccc([N+](=O)[O-])cc1)C(Cl)Cl	.	0.52

Continued:
SMILES	BasE inh	KSHV LANA nucl
O=C(COC(=O)C12CC3CC(CC(O)(C3)C1)C2)NCc1ccc2c(c1)OCO2	0.5	.
O=c1c2c3c(sc2nc(SCCn2ccnc2)n1-c1ccccc1)CCCC3	1.4	.
COc1cc2c(cc1NC(=O)CN1CC(C)OC(C)C1)oc1ccccc12 (stereo unspecified)	0.6	.
CC1CC(C)CN(C(=O)CNCc2ccco2)C1 (stereo unspecified)	-3.0	-0.16
O=C1N=C2SC=CN2C(=O)/C1=C\c1ccccc1	2.9	.
COC(=O)c1ccc(COc2ncnc3c2cnn3-c2ccccc2)o1	-2.2	.
COC(=O)c1cc2sccc2n1CC#N	-1.3	-0.04
